HPGD inh: HPGD (human) dehydrogenase inhibition | 150,000 tested, 4.3% active | P15428 | purified HPGD, NADH fluorescence kinetic, PGE2 substrate | Potency, µM, for the others: at the highest dose activity change, negative = inhibition, usual class: inhibitors; active = well fitted inhibition curve with a large enough effect (not every such curve was filed as active); inconclusive = small, poorly fitted or top-dose-only effect, or another doubt; inactive = no such curve, though single readings can be large or run the other way;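 also: top concentration of the series not given in the record; plate controls included wells without enzyme; inactives centre near -10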
Target sequence (P15428 whole entry, looked up): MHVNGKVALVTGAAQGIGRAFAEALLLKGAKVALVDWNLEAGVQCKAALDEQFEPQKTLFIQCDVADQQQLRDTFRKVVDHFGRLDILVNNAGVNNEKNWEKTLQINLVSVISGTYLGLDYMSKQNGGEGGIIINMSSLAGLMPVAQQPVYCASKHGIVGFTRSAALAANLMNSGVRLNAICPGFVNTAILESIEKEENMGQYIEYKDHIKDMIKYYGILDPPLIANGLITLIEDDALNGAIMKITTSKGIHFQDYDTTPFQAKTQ
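20 nM HPGD preincubated 15 min at room temperature with compound in 50 mM Tris-HCl pH 8, 0.01% Tween 20. Started with 1 mM NAD+ and 30 uM prostaglandin E2; NADH fluorescence (360/450 nm) read 5 times over 30-s intervals, last minus first.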
An asterisk follows results filed as active; u = inconclusive. % is scaled to controls: 0 for no effect and ±100 for the full control effect; potency is read from the fitted curve at half-maximal effect.

SMILES | HPGD inh
Cc1cc(Nc2ccccc2)n(CCOC(=O)COc2ccccc2)n1 | -21%
Cc1ccc(-n2c(SCc3nnc4n3CCC4)nnc2-c2ccccc2)cc1 | -5%
Cc1cc(N2CCOCC2)ccc1/C=C1\SC(=O)N(C(C)C)C1=O | -17%
COc1cc(-c2coc3cc(OCc4ccccc4)c(OC)c(O)c3c2=O)cc(O)c1OC | u
CCCOc1ccc(S(=O)(=O)NNC(=O)c2cc3ccccc3o2)cc1 | -15%
Cc1ccc(NC(Cc2cc(C)no2)c2ccccc2)cc1 (centres undefined) | -8%
N#Cc1c(-c2ccco2)cc(C2CC2)nc1N | u
COCCCNC(=O)c1ccc(N2CCOCC2)c(NS(=O)(=O)c2ccc(OC)cc2)c1 | -7%
N#Cc1cccc(NC(=O)C2SC(=Nc3ccccc3)C(C(=O)N3CCOCC3)=C2N)c1 (centres undefined) | -14%
Cc1ccc(CC(Cc2nc3ccccc3[nH]2)c2nc3ccccc3[nH]2)cc1 (centres undefined) | -12%
O=C(NNS(=O)(=O)c1ccccc1F)c1cccc(S(=O)(=O)N2CCOCC2)c1 | -14%
S=C(Nc1ccccc1)Nc1nc2ccccc2n1CCOc1ccc(Cl)cc1 | -13%
CC(C)c1ccc(NC(=O)c2cccnc2)cc1 | -12%
CCOC(=O)c1ccc(NC(=S)N(CCCN(CC)CC)Cc2ccco2)cc1 | -3%
Cn1ncc2c(N3CCN(c4ccccc4F)CC3)ncnc21 | -12%
COc1ccc(OCCSc2nc3ccccc3n2CC(=O)O)cc1 | -4%
CCCCc1nc(NCCN)c(C#N)c2c1CSC(C)(C)C2 | 2%
O=C1C2CCCCN2C(=O)N1CCCCN1CCN(c2ccc([N+](=O)[O-])cc2)CC1 (centres undefined) | -4%
Cn1c(C(=O)NCCc2ccsc2)cc2c(=O)n(C)c3ccccc3c21 | u
COc1cccc(NC(=O)CC2COc3ccccc3O2)c1 (centres undefined) | -21%
C=CCN1CCc2nc(N)sc2CC1 | -12%
CC(C)C(=O)Nc1cccc(NC(=O)c2cc3ccccc3o2)c1 | -8%
CC(NC(=O)c1noc2c1CCCC2)c1ccccc1 (centres undefined) | -2%
CCCCN1C(=O)/C(=C/C=C2/CC(C)(C)CN2C)SC1=S | -4%
CC(C)Oc1ccc(C(=O)Nc2ccc(N3CCCCC3)cc2)cc1 | -10%

In the list so far, 3 contain a halogen:
SMILES | HPGD inh
O=C(NNS(=O)(=O)c1ccccc1F)c1cccc(S(=O)(=O)N2CCOCC2)c1 | -14%
S=C(Nc1ccccc1)Nc1nc2ccccc2n1CCOc1ccc(Cl)cc1 | -13%
Cn1ncc2c(N3CCN(c4ccccc4F)CC3)ncnc21 | -12%

Returning to the listing, repeating the seven entries before the break.
SMILES | HPGD inh
Cn1c(C(=O)NCCc2ccsc2)cc2c(=O)n(C)c3ccccc3c21 | u
COc1cccc(NC(=O)CC2COc3ccccc3O2)c1 (centres undefined) | -21%
C=CCN1CCc2nc(N)sc2CC1 | -12%
CC(C)C(=O)Nc1cccc(NC(=O)c2cc3ccccc3o2)c1 | -8%
CC(NC(=O)c1noc2c1CCCC2)c1ccccc1 (centres undefined) | -2%
CCCCN1C(=O)/C(=C/C=C2/CC(C)(C)CN2C)SC1=S | -4%
CC(C)Oc1ccc(C(=O)Nc2ccc(N3CCCCC3)cc2)cc1 | -10%
CC(=O)NC(CCS(C)(=O)=O)C(=O)Nc1ccc(Cl)c(Cl)c1 (centres undefined) | -3%
O=[N+]([O-])c1ccc(O)c(/C=N/Nc2ccc(Cl)nn2)c1 | -30%
COC(=O)c1ccc(-c2nc(O)c3cnccn23)cc1 | -13%
O=C(CN(Cc1ccc(F)cc1)C(=O)CCC(=O)Nc1ccccn1)NCc1ccco1 | -13%
CCc1ccccc1NC(=O)CC1S/C(=N\c2nccs2)N(CC)C1=O (centres undefined) | -7%
Cc1ccc(/C=N/n2nnnc2N)cc1[N+](=O)[O-] | -6%
Cc1c2ccccc2c(C)c2c1ccc1ccccc12 | u
O=C(O)c1cc(S(=O)(=O)N2CCOCC2)ccc1N1CCOCC1 | -1%
CCCCN(C(=O)NC(=O)Nc1c(C)cc(C)cc1C)S(C)(=O)=O | -7%
CCOc1cc(C2C(C(=O)O)c3cc(OCC)c(OCC)cc3C(=O)N2C)ccc1O (centres undefined) | -3%
Cc1cccc(C(=O)NN2C(=O)C3C(c4ccccc4)C=CC(c4ccccc4)C3C2=O)c1 (centres undefined) | -9%
O=C(Nc1nnc(C2CC2)s1)C1CC(=O)N(c2ccc3c(c2)OCCO3)C1 (centres undefined) | -9%
CC1=CC(C2CC(=O)N(c3ccccc3C)C2=O)CC2C(=O)N(c3ccccc3C)C(=O)C12 (centres undefined) | -2%
COc1ccc(CNC(=S)NCc2ccc(OC(C)C)cc2)cc1 | -1%
CCC(=O)Nc1cccc(-n2nnnc2SCC(=O)c2ccc(C)c(C)c2)c1 | -8%
COc1ccc(CC(=O)N2CC(C)CC(C)C2)cc1 (centres undefined) | 28µM*
CC(=O)Nc1ccc(C(=O)OC2CCCCC2=O)cc1 (centres undefined) | -5%
Cn1cc(Br)c(C(=O)Nc2c(F)c(F)c(F)c(F)c2F)n1 | -6%
Cc1cc(C)c(OCC(=O)N/N=C/c2ccco2)c(C)c1 | -2%
CCOC(=O)c1c(N)c(C#N)nn1-c1ccccc1C(=O)OC | -1%
O=C(CCC(=O)N(c1cccc(F)c1)C(C(=O)NC1CCCC1)c1ccncc1)Nc1cccnc1 (centres undefined) | -1%
Cn1c(=O)c2c(nc(NCC3CCCO3)n2C)n(C)c1=O (centres undefined) | -12%
CC(=O)/C=C/c1ccc2ccccc2n1 | -12%
CC(=O)N1CCN=C1SCc1ccccc1F | -1%
Cc1cc(=O)n(C)c(=O)n1CCCCCCN1CCCC1 | -11%

Additional records.
SMILES | HPGD inh
O=C(CCN1C(=O)C2(OCCO2)c2ccccc21)c1ccccc1 | -6%
Cc1ccc(S(=O)(=O)c2c(C)cc(-c3ccccc3)[nH]c2=O)cc1 | u
COc1ccc(-n2c(SC3CCOC3=O)nc3ccccc3c2=O)cc1OC (centres undefined) | -7%
O=C(Nc1ccccc1C(F)(F)F)NC1CCCCC1 | -17%
Cc1ccc(C(=O)NNC(=O)C2CCN(Cc3ccccc3)CC2)cc1 | -13%
c1cc2c(c(NCc3ccncc3)c1)CCCC2 | -8%
COC(=O)C1=C(N)Oc2c(oc(CO)cc2=O)C1c1ccccc1F (centres undefined) | 0%
N=C1C(c2nc3ccccc3c(=O)[nH]2)=C(O)CN1CCc1ccccc1 | u
COc1ccc(C)cc1NC(=O)CSc1nnc(COc2ccccc2)n1Cc1ccco1 | -16%
C=CCn1c(SCC(=O)c2cccs2)nc2sc(C)c(C)c2c1=O | -18%
COC(=O)c1cc2n(n1)CCN(Cc1ccc(OC)cc1)C2=O | 5%
CCOC(=O)c1sc(NC(=O)c2ccccc2OC)nc1C | u
CC(C)NC(=O)N1CCC2(CC1)CCN(S(C)(=O)=O)CC2 | -5%
COc1ccc(OCC(O)CON2C(=O)c3ccccc3C2=O)cc1 (centres undefined) | -8%
Cc1cccc2c1N(CCOc1ccccc1Cl)C(=O)C2=O | -20%
CS(=O)(=O)N(CC(O)Cn1c2ccccc2c2ccccc21)c1ccccc1 (centres undefined) | -12%
CC1=NN(c2ccccc2)C(=O)/C1=C\c1cc(C)n(-c2ccccc2)c1C | -24%
O=CN1CCN(C(C(=O)NC2CCCC2)c2ccc(Cl)cc2)CC1 (centres undefined) | -29%
Cc1sc(NC(=O)CN(C)C2CCCCC2)nc1-c1ccc2c(c1)CCN2S(=O)(=O)c1ccccc1 | -7%
COc1ccc2cc(/C(C)=N/NC(=O)c3cc(-c4cccnc4)nc4ccccc34)ccc2c1 | u
CCC(Sc1nc2n[nH]c(C)c2c(=N)n1-c1cccc(Cl)c1C)C(=O)N(CC)CC (centres undefined) | -19%
CC1=CC(C)(C)N2C(=O)C3(C(C#N)=C(N)OC4=C3C(=O)CCC4)c3c(C)c(C)cc1c32 (centres undefined) | 0%
CCC(CC)C(=O)OCC(=O)NC12CC3CC(CC(C3)C1)C2 | -18%
CCCCNC(=O)CC1N=C2c3ccccc3N=C(SCC(=O)Nc3cccc(OC)c3)N2C1=O (centres undefined) | -24%
O=C1c2ccccc2C(=O)N1CSc1nnc2c3ccccc3n(CCc3ccccc3)c2n1 | -11%

Filtered by structure, those above containing a cyano group
SMILES | HPGD inh
N#Cc1c(-c2ccco2)cc(C2CC2)nc1N | u
N#Cc1cccc(NC(=O)C2SC(=Nc3ccccc3)C(C(=O)N3CCOCC3)=C2N)c1 (centres undefined) | -14%
CCCCc1nc(NCCN)c(C#N)c2c1CSC(C)(C)C2 | 2%
CCOC(=O)c1c(N)c(C#N)nn1-c1ccccc1C(=O)OC | -1%
CC1=CC(C)(C)N2C(=O)C3(C(C#N)=C(N)OC4=C3C(=O)CCC4)c3c(C)c(C)cc1c32 (centres undefined) | 0%

Other compounds
SMILES | HPGD inh
O=C(Cc1cccc(C(F)(F)F)c1)NCc1ccc(Cl)cc1Cl | -15%
CC(C)(CS(=O)(=O)[O-])NC(=O)CC[N+](C)(C)CCO | -6%
N#CCCN(CCC#N)C(=O)c1ccc2c(c1)OCO2 | -3%
COc1ccc(C(C)=O)cc1CSc1nnc(Nc2ccccc2)s1 | 25µM*
COc1cc(OC)cc(-c2n[nH]c(=S)n2-c2cc(OC)ccc2OC)c1 | u
O=C(O)Cc1c[nH]c2ccc(O)cc12 | 22µM*
NS(=O)(=O)c1cnccc1Nc1ccc(Cl)cc1 | -1%
C=CCn1c(-c2csc(-c3ccc(Cl)cc3)n2)n[nH]c1=S | -24%
O=C(NCc1ccco1)C1CCCN(S(=O)(=O)Cc2ccccc2)C1 (centres undefined) | -12%
Cc1cc(C)cc(NC(=O)c2ccc(CSc3nnc(C)s3)cc2)c1 | -19%
COc1cccc(-c2nnc(N(C)C(=O)c3ccno3)s2)c1 | u
CC(/C=C/c1ccccc1)=N\NC(=O)C1CC1(C)c1ccccc1 (centres undefined) | -6%
CCc1nc2ccccc2n1CC(=O)N(C(C)CC)C1CCS(=O)(=O)C1 (centres undefined) | -11%
COc1ccccc1[C@@H]1C(c2cccc(Cl)c2)=NN(c2ccccc2)[C@H]1C(=O)N1CCOC1=O | u
CSc1cccc(NC(=O)COc2ccccc2)c1 | 18µM*
CCn1c(SCc2nc3scc(-c4ccccc4)c3c(=O)[nH]2)nnc1-c1ccc(Cl)cc1 | -7%
COCCN(Cc1cc2ccc(C)cc2n2nnnc12)Cc1nnnn1C(C)(C)C | -6%
CC1(C)CC2CC(C)(CN2C(=O)C23CCC(C)(C(=O)O2)C3(C)C)C1 (centres undefined) | -3%
COc1ccc2c(Cl)c(C(=O)N/N=C/c3ccc4c(c3)OCO4)sc2c1 | u
COc1ccccc1NC(=O)c1cc(Sc2nncn2C)nc2ccccc12 | -12%
O=C(CSc1nnc(-c2ccccc2O)o1)N1CCc2ccccc2C1 | -27%
CCSc1nnc(NC(=O)C(C(F)(F)F)C(F)(F)F)s1 | 3.5µM*
Cc1cccc(NC(=O)CSc2nc3ccccc3o2)c1 | -23%
c1ccc2c(NCC3CCCO3)nc(-c3ccncc3)nc2c1 (centres undefined) | 0%
Cc1noc(C)c1CSc1nc2ccccc2nc1NS(=O)(=O)c1ccc(Cl)cc1 | u

Further compounds.
SMILES | HPGD inh
NC(=O)N1CCCC1C(=O)Nc1ccc(Cl)c(Cl)c1 (centres undefined) | 2%
CCOC(=O)c1c(-c2ccc(-c3ccccc3)cc2)csc1NC(=O)c1cccc(N2C(=O)CCC2=O)c1 | u
COc1ccc(-c2nc3ccccc3c(C(=O)Nc3ccc(S(=O)(=O)Nc4cc(C)on4)cc3)c2C)cc1 | -22%
COc1ccc(Br)cc1C1Nc2ccccc2C(=O)N1NC(=O)c1ccncc1 (centres undefined) | -6%
O=C(NCCO)c1cccc2c1-c1ccccc1C2=O | -2%
CCCOc1ccc(N2C(=O)CC(N3CCCC(C(=O)N4CCCC4)C3)C2=O)cc1 (centres undefined) | -12%
Cc1cccc(-n2c(C)cc(/C=N/NC(=O)c3ccc(CN4CCOCC4)cc3)c2C)c1 | -18%
CCOC(=O)C1C(=O)C=C(Nc2ccccc2F)CC1c1ccccc1 (centres undefined) | 0%
Cc1ccc(-c2nnn(CC(=O)N3c4ccccc4CCc4ccccc43)n2)cc1 | -5%
Cc1cc(C(=O)OCC(=O)NCc2ccco2)c(C)n1-c1ccc(F)cc1 | -23%
COc1cc(C2=NOC(C(=O)NC3CCCCC3)C2)cc(OC)c1OC (centres undefined) | -12%
Cc1cccc(CCNC(=O)c2nnc(Cc3ccc(Cl)cc3)o2)c1 | -6%
CN(C)c1nc(OCCNC(=O)COc2ccc(Cl)cc2Cl)nc(N2CCOCC2)n1 | -13%
COC(=O)CCC(=O)OC1(C)C(=O)C2=CN(CCN3CCOCC3)C(c3ccc(OC)cc3)=CC2=C(Br)C1=O (centres undefined) | -16%
Clc1ccc(-c2cn3cc(Br)ccc3n2)cc1Cl | -11%
CCCCC(=O)NC(=S)Nc1cccc(Cl)c1N1CCCCC1 | -16%
O=C(OC(C(=O)Nc1cc(Cl)cc(Cl)c1)c1ccccc1)C1=COCCO1 (centres undefined) | 2%
O=C(NCCN1CCOCC1)c1ccc2c(c1)N(Cc1ccc(F)cc1)C(=O)CS2 | -14%

Bioassay records deposited in PubChem by National Center for Advancing Translational Sciences (NCATS).

An excerpt. The share of hits here may be higher or lower than overall.
